High-throughput results deposited in PubChem BioAssay by National Center for Advancing Translational Sciences (NCATS).
Rango-impB inh – qHTS Assay for Inhibitors of Rango (Ran-regulated importin-beta cargo) - Importin beta complex formation. Importin subunit beta-1 (Homo sapiens), Q14974. Rango CFP/YFP FRET sensor + importin beta, 45 min. Potency, µM (highest dose often 92.2 µM), without a hit: at the top dose inhibition of complex formation. 0.031% of 340,000 active. AID 540263, 2011; active = rising FRET ratio curve, often small or poorly fitted; inconclusive = mostly compound fluorescence or quenching in the first reads; inactive = flat curves in all reads;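 note: potency is the fitted concentration of half-maximal effect; 0% = DMSO wells and 100% = buffer wells lacking importin beta; nearly all actives have a fitted effect of over 15% in size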
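FRET biosensor Rango (snurportin 1 IBB between N-terminal EYFP and C-terminal Cerulean), 50 nM in PBS/1 mM DTT/0.02% Tween-20/0.1% BSA, preincubated 5 min RT with compound; 0.125 microM importin beta added, 45 min RT, CFP/YFP FRET ratio read.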
miR-21 FLuc – qHTS Assay for Modulators of miRNAs and/orActivators of miR-21 | HeLa miR-21 FLuc reporter, luciferase, 48 h | Potency, µM (highest dose often 38.3 µM), inactives show top-dose reporter change, positive = more light | 340,000 tested, under 10 active | AID 2288, 2010; active = well fitted rising curve with a large enough effect; inconclusive = small, poorly fitted or top-dose-only effect; inactive = no such curve, though single readings can be large or run the other way;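 note: % of control where 0% means no effect; miR-21 action dims this reporter so a rising signal means less miR-21 action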
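Luminescence from a firefly luciferase reporter carrying a miR-21 binding site downstream, stably expressed under a CMV promoter in HeLa cells that make miR-21 endogenously, reports miRNA modulation after 48 h compound exposure up to approximately 40uM final.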
GLA inh pH 4.5 – qHTS Assay for Inhibitors of Human alpha-Galactosidase at pH 4.5. purified enzyme, 4-MU-alpha-Gal fluorescence, pH 4.5. activity change, negative = inhibition, % at 105 µM. 230,000 tested, under 10 active. AID 1467, 2008; inconclusive = small, poorly fitted or top-dose-only inhibition, or a rising curve; inactive = flat fitted curve, though single readings scatter; no compound was filed as active;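 note: 0% = full activity with enzyme and -100% = basal without enzyme; dose as in the result columns while the protocol names 77 µM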
Target sequence (P06280 whole entry, looked up): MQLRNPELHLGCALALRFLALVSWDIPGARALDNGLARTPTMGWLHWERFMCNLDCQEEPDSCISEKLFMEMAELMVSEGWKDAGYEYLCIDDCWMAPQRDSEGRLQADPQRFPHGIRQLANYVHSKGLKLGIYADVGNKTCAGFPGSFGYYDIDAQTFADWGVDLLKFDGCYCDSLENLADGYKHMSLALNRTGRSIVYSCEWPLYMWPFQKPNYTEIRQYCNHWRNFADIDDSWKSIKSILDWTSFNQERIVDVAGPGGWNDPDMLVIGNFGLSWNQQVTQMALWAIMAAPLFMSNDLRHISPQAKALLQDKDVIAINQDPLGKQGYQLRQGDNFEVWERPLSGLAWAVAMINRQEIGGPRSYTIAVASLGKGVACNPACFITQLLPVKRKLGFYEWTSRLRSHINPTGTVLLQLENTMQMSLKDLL
Rango release inh – qHTS Assay for Inhibitors of RanGTP induced Rango (Ran-regulated importin-beta cargo) - Importin beta complex dissociation; Snurportin-1 (Homo sapiens) + GTP-binding nuclear protein Ran (Homo sapiens) + Importin …; Biochemical FRET Rango-importin beta, RanGTP-induced dissociation; Potency, µM (top dose mostly 46.1 µM), for inactives: at the highest dose activity change, negative = inhibition; 0.071% of 340,000 active; AID 540253, 2011; active means falling FRET ratio curve, often poorly fitted, with flat reads before Ran was added; inconclusive means other falling curves, or compound fluorescence or quenching; inactive means flat or rising ratio curve;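 note: potency is the fitted concentration of half-maximal effect; % of control where 0% means no effect; nearly all actives have a fitted effect of over 45% in size; -100% = wells without RanGTP and RCC1; the record marks most hits as doubtful in a second field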
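Rango/importin beta premix (0.1/0.25 uM final), PBS + 1 mM DTT + 0.02% Tween-20 + 0.1% BSA; cpd 5 min RT; FRET pre-read; + RanGTP-RCC1 (0.6 uM Ran, 2 mM GTP, 0.2 uM RCC1); 45 min RT; FRET post-read, ex 430, em 486/530 nm.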
The depositor's hits bear a star; u = inconclusive; x = no result given; & = joins results of further samples. An excerpt; rates above refer to the full screens.

SMILES	Rango-impB inh	miR-21 FLuc	GLA inh pH 4.5	Rango release inh
CSc1nc(N2CCOCC2)c2sccc2n1	-3.4%	1%	8	0%
Cc1nn(CC(=O)Nc2ccc3c(c2)OCCO3)c(C)c1[N+](=O)[O-]	-1.0%	x	x	-14%
CC(C)N(CCn1c(=S)[nH]c2ccccc2c1=O)C(C)C	0.3%	1%	0	-1%
Cc1ccccc1-c1nnc(SCC(=O)N2CCCC2)o1	1.6%	-64%	x	9%
Cc1ccc2c(c1)/C(=N/N1C(=O)c3ccccc3C1=O)C(=O)N2	5.7%	3%	-13	2%
CCOC(=O)c1c(CC(C)C)csc1/N=C/C1C(=O)CCCC1=O	u	-1%	4	u
Cc1ccc(-c2nc3cccnc3s2)cc1NS(=O)(=O)c1ccc2c(c1)CCCC2	-4.3%	-31%	4	1%
CC(=O)Nc1ccc(N=Nc2ccccc2)cc1[N+](=O)[O-]	-1.5%	x	x	1%
O=C1COc2ccc(C(=O)CSc3ccc(Br)cc3)cc2N1	-0.9%	x	x	-11%
Oc1cccc(Nc2c3ccccc3nc3ccccc23)c1	u	27%	x	u
COc1ccc(NC(=O)c2cnn(-c3ccccc3)c2C)c(OC)c1	2.1%	-11%	x	-10%
CCOC(=O)C1CC2=C(CC(C)(C)CC2=O)N(CCOC)C1=O (stereo not given)	-2.6%	x	x	u
Cc1cc(C)cc(N=Cc2ccc([N+](=O)[O-])s2)c1	0.5%	28%	3	-13%
CC(C)CC(=O)Nc1nnc(SCC(=O)Nc2ccc3c(c2)OCO3)s1	0.2%	-12%	6	-5%
N#CC1=C(N)Oc2c(oc(CO)cc2=O)C1c1ccsc1 (stereo not given)	3.1%	-1%	0	-7%
COc1ccc(C(=O)O)cc1S(=O)(=O)Nc1ccccc1-c1ccccc1	-0.7%	0%	x	7%
O=C1c2cccnc2C(Nc2ccc(S(=O)(=O)N3CCCCCC3)cc2)N1Cc1ccccc1 (stereo not given)	-1.2%	-6%	-8	0%
CC1(C)CC(NC(=O)C(C)(C)Oc2ccc(Cl)cc2)CC(C)(C)N1	1.9%	-1%	x	4%
CCOC(=O)N1CCN(S(=O)(=O)N2CCCC(C(=O)NCCCN3CCCCC3CC)C2)CC1 (stereo not given)	-2.2%	-3%	x	3%
Cc1nnc(NC2CCCCC2)[nH]c1=O	-2.0%	-5%	6	18%
COc1ccccc1N1CCN(C(=O)CSc2nnc3c4ccccc4nc(Cc4ccccc4)n23)CC1	x	-2%	-4	x
CCCCn1c(SCC(=O)N2CCCC2)nnc1-c1ccccc1	1.2%	-2%	4	-12%
O=C1Cc2cc(S(=O)(=O)Nc3ccccc3Cl)cc3c2N1CCC3	3.0%	-3%	x	21%
Cc1cc(C)c(Nc2cc(S(=O)(=O)O)c(N)c3c2C(=O)c2ccccc2C3=O)c(C)c1	0.3%	u	-2	-19%
CN(C)c1ccc(C(=O)NCC(c2cccs2)N2CCOCC2)cc1 (stereo not given)	-4.1%	x	x	13%
Cc1onc(-c2ccccc2)c1-c1n[nH]c(=S)n1-c1ccccc1	-1.4%	x	x	u
COc1ccc2c(CC(=O)Nc3ccccc3N3CCOCC3)coc2c1	8.3%	0%	u	6%
Cc1cc(CNC(=O)c2cc(Br)ccc2Cl)nn1C	-1.1%	-5%	1	-1%
O=C(Cn1c(C(=O)N2CCc3ccccc3C2)cc2sccc21)c1ccccc1	-0.8%	0%	0	16%
CCN(CC)C(=O)c1c(-c2ccccc2)oc2ccc(O)cc12	11%	21%	x	38%
Cc1ccc(C)c(NC(=S)NNC(=O)c2ccco2)c1	-3.2%	-13%	-9	-12%
Cc1ccc(-c2nc(=S)c3c(n2Cc2ccco2)CC(C)(C)OC3)cc1	-1.8%	-10%	8	3%
C/C(=N/NC(=O)c1ccc(Br)o1)c1cccs1	0.3%	-58%	x	17%
Cc1ccc(OCCNC(=O)c2ccc3ccccc3n2)cc1	1.9%	-25%	x	u
CCCCn1c(N)c(N(CCOC)C(=O)C2CCN(c3ncnc4sc(C)c(C)c34)CC2)c(=O)[nH]c1=O	-4.8%	x	x	21%
Cc1noc(C)c1C(=O)Nc1nnc(CC(C)C)s1	-0.4%	-3%	-2	1%
O=C(COc1ccc(-c2ccccc2)cc1)N/N=C/c1cc(O)ccc1Br	3.8%	-24%	-2	-17%
CCOC(=O)CCCCCC(=O)Nc1ccc2c(c1)CC(=O)N([C@H](C)CO)C[C@@H](C)[C@H](CN(C)Cc1ccc3c(c1)OCO3)O2	0.5%	x	x	3%
O=C(CSc1nnnn1-c1ccc(O)cc1)N1N=C(c2ccc3ccccc3c2)CC1c1ccccc1 (stereo not given)	x	-15%	0	x
COc1cccc(NC(=S)NN2C(C)CCCC2C)c1 (stereo not given)	1.5%	-5%	5	1%

Quoted at random: two compounds from above
SMILES	Rango-impB inh	miR-21 FLuc	GLA inh pH 4.5	Rango release inh
CCOC(=O)C1CC2=C(CC(C)(C)CC2=O)N(CCOC)C1=O (stereo not given)	-2.6%	x	x	u
CN(C)c1ccc(C(=O)NCC(c2cccs2)N2CCOCC2)cc1 (stereo not given)	-4.1%	x	x	13%

The list goes on:
SMILES	Rango-impB inh	miR-21 FLuc	GLA inh pH 4.5	Rango release inh
CCOC(=O)C1=C(C)OC(N)=C(C#N)C1c1cc2cc(C)ccc2nc1N1CCCCC1 (stereo not given)	u	-18%	-1	-19%
Cc1cccc(OCCNC(=O)c2ccc(Cl)c(S(=O)(=O)NCc3cccnc3)c2)c1	1.5%	x	x	-2%
CCN(CC)CCNC(=O)c1ccc(NC(=O)c2ccccc2-c2ccc(C(F)(F)F)cc2)cc1	-0.3%	4%	x	-1%
C/C(=N\NC(=O)c1cccnc1)c1ccc(OC2OCCOC2Oc2ccc(/C(C)=N/NC(=O)c3cccnc3)cc2)cc1 (stereo not given)	0.3%	-6%	-4	1%
NC(=O)c1ncn([C@@H]2O[C@H](CNS(=O)(=O)c3cc4ccccc4s3)[C@@H](O)[C@H]2O)n1	0.1%	x	x	-6%
Cc1ccc(S(=O)(=O)N2CCCCC2)cc1C(=O)N1CCN(CCO)CC1	4.2%	x	x	7%
CC(C)c1ccc(NC2CCCN(C(=O)c3ccncc3)C2)cc1 (stereo not given)	u	11%	x	-15%
CC(=O)Nc1cccc(NC(=O)CSc2nnc(Cc3cccn3C)n2-c2ccc(C)cc2)c1	-3.1%	-2%	-1	-28%
CCn1cc(C(=O)NCCCOC)c(=O)c2cc(S(=O)(=O)N3CCCC3)ccc21	-1.0%	1%&-1%	x	10%
CCOC(=O)c1ccc(NNC(=O)CC)c([N+](=O)[O-])c1	-4.1%	1%	2	27%
ONC(=Nc1ccccc1)C(=Nc1ccccc1)NO	-1.9%	1%	-10	11%
N#Cc1ccccc1NC(=O)c1cc(=O)c2ccccc2o1	0.0%	-14%	0	-10%
O=C(OCCC1Oc2cccnc2NC1=O)c1ccc(F)cc1 (stereo not given)	0.5%	0%	-9	7%
CCOC(=O)c1c(NC(=O)C(C)NCc2ccco2)sc2c1CCC(C)C2 (stereo not given)	3.8%	11%	-14	0%
CC(C)OC(=O)CC(=O)CSc1nc2c(c(-c3cccs3)c1C#N)CCC2	u	-3%	-15	u
COC(=O)c1sccc1NC(=S)N1CCN(c2cccc(C)c2C)CC1	0.7%	-5%	-12	-4%
COC(=O)[C@H](CC(C)C)NC(=O)Cn1cnc2c(OCc3ccccc3)ncnc21	0.8%	x	x	-6%
COCCNC(=S)Nc1ccc2[nH]c(=O)[nH]c2c1	u	-1%	u	-30%
CCOC(=O)C1=C(N)N(c2ccccc2)C2=C(C(=O)CCC2)C1c1cccnc1 (stereo not given)	-3.8%	-6%	-16	4%
Cc1ccc(C)c(CSc2nnc(C)c(=O)n2N)c1	-0.4%	3%	-19	8%
C=CCC1(CC=C)CCCN1C(=O)CC1C(=O)NCCN1Cc1ccc(OC)c(OC)c1 (stereo not given)	1.8%	-7%	2	-5%
O=C(c1cccc(Cl)c1)N1CCC2CC1c1cc(-c3ccccc3)ccc12 (stereo not given)	0.3%	x	x	8%
CCOC(=O)c1cccc(S(=O)(=O)N(CCO)Cc2cc3cc(OC)ccc3[nH]c2=O)c1	0.8%	9%	1	4%
Cc1ccc(N2C(=O)CC(NCc3ccc4c(c3)OCO4)C2=O)cc1Cl (stereo not given)	-1.9%	-41%	0	-7%
O=[N+]([O-])c1ccc(-c2nc(-c3cccs3)c(-c3cccs3)[nH]2)cc1	9.2µM*	27%	-26	-17%
Cc1cccc(OCC(=O)Nc2ccc(CN3CCOCC3)cc2)c1C	-0.3%	1%	x	-6%
COc1ccc([C@H]2CC(=O)C=C(c3cccc(C(F)(F)F)c3)C2)cc1	0.2%	x	x	-8%
CC(C)(C)c1ccc(SCCc2ccccn2)cc1	4.3%	-62%	-10	-10%
O=c1c2ccccc2nc(SCc2nnc(-c3ccccc3)o2)n1-c1ccc(F)cc1F	4.5%	-20%	-13	0%
COc1ccc(N(/N=C2\Sc3ccccc3C2=O)C(C)=O)cc1	2.2%	-67%	-4	20%
CCC(C)Nc1ccc(NC(C)CC)cc1 (stereo not given)	u	x	x	-20%
CCOc1ccc(OCC)c(S(=O)(=O)n2cnc(C)c2)c1	-0.1%	-7%	x	9%
CCCCSc1nc2c(cc1C#N)CCC2	-2.5%	-14%	3	-22%
COc1ccccc1OCCNC(=O)c1cc(=O)[nH]c2ccccc12	-4.4%	3%	1	0%
Nn1c(-c2ccccn2)nnc1-c1ccccn1	1.0%	-34%	5	4%
Cc1c(NP(=O)(Oc2ccccc2F)Oc2ccccc2F)c(=O)n(-c2ccccc2)n1C	-0.8%	-3%	1	-17%
CSc1nc2c(c(=O)[nH]1)C(c1cccc(Cl)c1Cl)CC(=O)N2 (stereo not given)	-2.3%	-2%	-2	7%
COc1cc(F)ccc1CN1CCC(n2nccc2NC(=O)C2CCOC2)CC1 (stereo not given)	3.4%	-3%	x	-7%
Cc1c(C(=O)NCc2n[nH]c(=S)n2-c2ccc(F)cc2)cccc1[N+](=O)[O-]	u	0%	1	14%
CCOC(=O)c1sc(NC(=O)c2ccncc2)nc1C	0.9%	-7%	8	-8%

Sorted by length of the SMILES (rising): some entries from above.
SMILES	Rango-impB inh	miR-21 FLuc	GLA inh pH 4.5	Rango release inh
CCC(C)Nc1ccc(NC(C)CC)cc1 (stereo not given)	u	x	x	-20%
COc1ccccc1OCCNC(=O)c1cc(=O)[nH]c2ccccc12	-4.4%	3%	1	0%
COc1ccc([C@H]2CC(=O)C=C(c3cccc(C(F)(F)F)c3)C2)cc1	0.2%	x	x	-8%
Cc1c(C(=O)NCc2n[nH]c(=S)n2-c2ccc(F)cc2)cccc1[N+](=O)[O-]	u	0%	1	14%

Continued:
SMILES	Rango-impB inh	miR-21 FLuc	GLA inh pH 4.5	Rango release inh
N#Cc1cccc(NC(=O)COC(=O)c2cc(S(=O)(=O)Nc3ccccc3Cl)ccc2O)c1	-1.2%	x	x	-17%
CCCCNS(=O)(=O)c1ccc(OC)c2ncccc12	-1.5%	-7%	4	-10%
CN1CCN(CC(=O)Nc2nc(-c3ccccc3)cs2)CC1	-1.2%	-12%	10	-8%
O=C(Nc1cccc(F)c1)c1c(O)c2cccc3c2n(c1=O)CCC3	x	-2%	4	x
Cn1cnc2cc(NCc3ccccc3Cl)ccc21	-2.1%	-59%	x	17%
O=C(CCCN1C(=O)c2cccc3cccc(c23)C1=O)N1CCN(c2ccccn2)CC1	2.9%	-16%	2	-5%
O=C(OCC(=O)N1CCN(c2ccccc2)CC1)C1=COCCO1	-0.5%	1%	-12	-5%
Cc1cccc2sc(NC(=O)Cn3cccc3)nc12	-3.2%	-6%	4	-7%
OCCN1CCN(C(=S)NC2CCCC2)CC1	0.4%	1%	-4	6%
Cc1ccc2nc(-c3cccc(Br)c3)cc(C(=O)NC3=NCCS3)c2c1	4.0%	-12%	3	25%
O=C(NCc1ccc2c(c1)OCO2)c1cc(F)c(F)cc1Cl	-3.8%	-31%	x	-9%
